Source: PubChem (Johns Hopkins Ion Channel Center)
KCNQ2 pot – potentiators of rat KCNQ2 potassium channel; B-score at 10 µM; hit rate 0.54% among 310,000; CHO-K1 KCNQ2, FluxOR thallium flux fluorescence; active compounds read high;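 active = fluorescence ratio B-score at least 3 SD of library B-scores, with initial fluorescence B-score within 3 SD, cut at about 5.3 in these data; same plate scores as AID 2156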;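 also: B-score of peak minus minimum over baseline fluorescence ratio after K+ and Tl+ stimulus; positive B-score means potentiation of KCNQ2 with more thallium influx and brighter signal; only the inactives scoring about 0 or higher are listed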
Target sequence (O88943 whole entry, looked up): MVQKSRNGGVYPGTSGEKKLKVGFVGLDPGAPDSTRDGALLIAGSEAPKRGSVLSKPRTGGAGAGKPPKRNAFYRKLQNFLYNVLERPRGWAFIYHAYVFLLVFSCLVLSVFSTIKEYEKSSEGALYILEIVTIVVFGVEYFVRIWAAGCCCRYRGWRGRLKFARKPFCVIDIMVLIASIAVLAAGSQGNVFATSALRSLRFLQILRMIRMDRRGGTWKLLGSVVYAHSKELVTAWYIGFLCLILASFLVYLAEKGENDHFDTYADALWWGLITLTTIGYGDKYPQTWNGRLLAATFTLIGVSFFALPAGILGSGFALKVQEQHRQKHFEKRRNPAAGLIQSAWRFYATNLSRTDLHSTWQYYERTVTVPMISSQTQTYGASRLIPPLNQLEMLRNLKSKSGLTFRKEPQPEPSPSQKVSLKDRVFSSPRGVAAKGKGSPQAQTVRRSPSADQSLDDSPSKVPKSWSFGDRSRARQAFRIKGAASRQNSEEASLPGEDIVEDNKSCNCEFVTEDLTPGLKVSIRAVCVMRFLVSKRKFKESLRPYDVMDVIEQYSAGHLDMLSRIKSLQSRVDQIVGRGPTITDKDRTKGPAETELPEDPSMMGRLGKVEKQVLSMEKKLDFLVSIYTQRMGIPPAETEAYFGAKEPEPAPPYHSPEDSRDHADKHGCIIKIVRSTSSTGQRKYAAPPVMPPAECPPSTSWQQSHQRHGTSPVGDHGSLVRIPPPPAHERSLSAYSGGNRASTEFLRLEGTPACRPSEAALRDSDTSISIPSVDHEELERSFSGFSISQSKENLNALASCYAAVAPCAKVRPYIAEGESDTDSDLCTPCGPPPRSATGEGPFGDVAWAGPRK
KCNQ2 pot baseline – second read-out of KCNQ2 pot, no call of its own (marks repeat the call); B-score; compound at 10 µM; measured here: initial fluorescence intensity artifact check;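 brightness before thallium and not channel activity; 0 = typical well and far values either way flag optical interference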
Starred values were filed as active, the others as inactive; · = no result given.

Every second line gives: KCNQ2 pot, KCNQ2 pot baseline
> CN(Cc1nccn1C)C(=O)CC1C(=O)NCCN1Cc1ccccc1C(F)(F)F (stereo not given)
  0.98, 0.67
> C#CCOCCOCCOCCNc1nc(N2CCN(C(=O)Cn3cc(CC(C)O)nn3)CC2)nc(N2CCN(C(=O)[C@H](CCCCN)n3cc(CCC(=O)O)nn3)CC2)n1 (stereo not given in full)
  1.9, 2
> CCOC(=O)CSc1nnc(CSc2nc3ccccc3c(=O)[nH]2)n1-c1ccccc1
  0.88, 0.55
> CCOC(=O)c1[nH]c(C)c(C(=O)NC2CCCCCC2)c1C
  1.2, 0.34
> CCS(=O)(=O)Nc1c(C)n(C)n(-c2ccccc2)c1=O
  0.59, 0.31
> CCOc1ccc(CCNC(=O)CSc2cc(=O)n(C)c3ccc(Cl)cc23)cc1OCC
  0.02, 2.3
> Cc1ccc(OCC(=O)Nc2ccccc2F)cc1C
  0.17, -2.7
> COc1ccccc1NS(=O)(=O)c1cccc(C(=O)N/N=C/c2cn(-c3ccccc3)nc2-c2ccccc2)c1
  1.3, -0.28
> O=C(NCCN1CCOCC1)C1CCN(S(=O)(=O)N2CCCCC2)CC1
  0.25, -0.89
> COc1cc(O)c(/C=N/NC(=O)c2ccncc2)c(OC)c1[N+](=O)[O-]
  0.02, -1.4

Remaining list, next part
Every second line gives: KCNQ2 pot, KCNQ2 pot baseline
> CC1CCN(c2cc(=O)n(C3CCCCC3)c(=O)[nH]2)CC1
  1.5, 0.03
> O=c1c2ccccc2nc2c3ccccc3ncn12
  0.29, -0.71
> NC(=O)C1CCN(C(=O)COc2ccc3ccccc3c2)CC1
  1.7, -0.68
> CC(C)(C)NCC(O)CON=C1c2ccccc2-c2ccccc21 (stereo not given)
  2.4, -0.64
> O=C(CN1CCN(S(=O)(=O)c2ccccc2C(F)(F)F)CC1)NCc1cccs1
  1.8, -0.14
> O=C(Nc1ccc(Cc2ccncc2)cc1)c1ccc(Br)o1
  1.4, -0.36
> CCc1[nH]nc2c1C1(C(=O)N(Cc3ccccc3)c3ccccc31)C(C#N)=C(N)O2 (stereo not given)
  0.15, 0.78
> Cc1cc(C)c(N=Cc2c(O)c3ccccc3oc2=O)c(C)c1
  1.1, 0.06
> COc1ccc(OC)c(CCNC(=O)CC2Oc3ccccc3NC2=O)c1 (stereo not given)
  0.84, 0.28
> Cc1cccnc1NC(=O)Nc1ccccc1
  0.55, -0.66

Continued.
Every second line gives: KCNQ2 pot, KCNQ2 pot baseline
> C/C=C/c1ccc(OCCCCN2CCN(CC)CC2)c(OC)c1
  0.56, -0.93
> NS(=O)(=O)c1ccc(CNC(=O)c2cc(-c3ccccn3)nc3ccc(Cl)cc23)cc1
  1.6, 4
> O=C1[C@H]2[C@H](C=CC[C@H]2C(=O)N2CCOCC2)CCN1Cc1ccccc1
  0.06, -1
> CCOC(=O)N1CCN(C2CC(=O)N(c3ccc(Cl)c(Cl)c3)C2=O)CC1 (stereo not given)
  2, -0.53
> COc1ccccc1N(Cc1cc2cccc(C)c2[nH]c1=O)C(=O)C(C)C
  0.62, 0.22
> O=C(Nc1cc2c(cc1Br)OCCO2)c1ccco1
  0.77, -0.16
> CCCNC(=O)N1CCN(c2nc(C(C)C)c3c(c2C#N)CC(C)(C)OC3)CC1
  0.58, -0.56
> CCOC(=O)COc1c(Cl)cc(C2NC(=S)NC(c3ccccc3)=C2C(C)=O)cc1OCC (stereo not given)
  0.48, 1.8
> COc1cc(OC)cc(C(=O)N[C@H](C(=O)OCC(=O)NC(C)c2ccccc2)C(C)C)c1 (stereo not given in full)
  0.43, -0.54
> CCOC(=O)c1nnc2ccnn2c1N
  2.1, 0.28

Given with each value named: 3 of the compounds above.
> O=C(Nc1cc2c(cc1Br)OCCO2)c1ccco1
  KCNQ2 pot: 0.77; KCNQ2 pot baseline: -0.16
> CCCNC(=O)N1CCN(c2nc(C(C)C)c3c(c2C#N)CC(C)(C)OC3)CC1
  KCNQ2 pot: 0.58; KCNQ2 pot baseline: -0.56
> CCOC(=O)COc1c(Cl)cc(C2NC(=S)NC(c3ccccc3)=C2C(C)=O)cc1OCC (stereo not given)
  KCNQ2 pot: 0.48; KCNQ2 pot baseline: 1.8

Sorted by count of non-hydrogen atoms (smallest number first): some entries from above.
Every second line gives: KCNQ2 pot, KCNQ2 pot baseline
> CCOC(=O)c1nnc2ccnn2c1N
  2.1, 0.28
> O=C(Nc1cc2c(cc1Br)OCCO2)c1ccco1
  0.77, -0.16
> NS(=O)(=O)c1ccc(CNC(=O)c2cc(-c3ccccn3)nc3ccc(Cl)cc23)cc1
  1.6, 4

Next section.
Every second line gives: KCNQ2 pot, KCNQ2 pot baseline
> COc1cccc(-c2nc(CS(=O)CC(=O)O)c(C)o2)c1 (stereo not given)
  1.7, -0.79
> Nc1cc(=O)[nH]c(SCC(=O)Nc2cc(Cl)ccc2Cl)n1
  0.46, -0.2
> CCOC(=O)c1sc(NC(=O)OC)c(C(=O)OC)c1C
  1.1, 1.6
> O=C(O)C(Cc1ccc(O)cc1)N1C(=O)c2c(Cl)c(Cl)c(Cl)c(Cl)c2C1=O (stereo not given)
  0.06, 0.7
> O=C(NCCc1ccccc1)c1ccc(NCC2CCCO2)c([N+](=O)[O-])c1 (stereo not given)
  1.5, 1.5
> O=C(O)C1CC=CCC1C(=O)Nc1cccc(Cl)c1 (stereo not given)
  1.2, 1.4
> N#CCCn1cc(/C=C2\NC(=S)N(c3ccccc3)C2=O)c(-c2ccc(-c3ccccc3)cc2)n1
  1.1, -0.29
> COc1cc(CC(=O)OCC(=O)Nc2cc(S(=O)(=O)N3CCCC3)ccc2Cl)cc(OC)c1OC
  4.9, -2.5
> NC(N)=NS(=O)(=O)c1ccc(NC(=S)NC(=O)/C=C/c2ccc(F)cc2)cc1
  0.61, 2.5
> COc1ccc(-n2c(NC(=O)c3ccco3)c(C#N)c3nc4ccccc4nc32)cc1
  1.5, 0.05

(more compounds)
Every second line gives: KCNQ2 pot, KCNQ2 pot baseline
> O=C(/C=C/c1c(Cl)cccc1Cl)NCc1ccccc1
  0.2, -0.3
> Cc1sc2ncnc(N3CCC(C(=O)Nc4cc(S(C)(=O)=O)ccc4Cl)CC3)c2c1C
  0.57, 1.3
> COc1cc(C)ccc1OCCON1C(=O)CCC1=O
  0.86, -0.81
> COc1ccc(NC(C)=O)cc1NC(=O)CSc1nnc(C2CCCCC2)n1N
  0.03, -0.01
> CN1CCN(c2ccc(NC(=O)c3ccc(Cl)cc3)cn2)CC1
  1, 0.03
> CCOC(=O)N1CCN(c2ccccc2O)CC1
  1.4, -1.1
> COc1ccc(-c2[nH]ncc2CN(C)C(C)c2ccncn2)c(F)c1 (stereo not given)
  1.8, 0.03
> Cc1cc(-c2nc(C)c(C(=O)NNS(=O)(=O)c3cccc(C(F)(F)F)c3)s2)no1
  0.51, -1.1
> O=C(N/N=C/c1ccccc1OCC(=O)N1CCCC1)C(=O)Nc1ccccc1F
  1.2, -0.22
> Fc1ccc(NC(=S)NCCN2CCOCC2)cc1
  0.17, 1.2

Later entries.
Every second line gives: KCNQ2 pot, KCNQ2 pot baseline
> Cc1cccc(-n2ncc3c(NCc4ccco4)ncnc32)c1
  0.13, 0.11
> O=C(COc1ccc(F)cc1Br)N1CCN(S(=O)(=O)/C=C/c2ccccc2)CC1
  1.4, 0.29
> NC(=O)c1cc2ccccc2o/c1=N/NC(=O)c1cccs1
  0.03, 0.24
> Cc1cccc(N2C(=O)c3ccc(C(=O)Nc4cccc(C(=O)O)c4)cc3C2=O)c1
  0.32, -0.47
> CC(C)NC(=O)C(=O)NCCN1CCN(C(=O)c2ccc(C(C)(C)C)cc2)CC1
  0.7, -0.3
> CC(C)C1=NOC(C(=O)N2CCC(N3CCC(C(=O)N4CCOCC4)CC3)CC2)C1 (stereo not given)
  0.04, 0.32
> COc1ccc2nc(-c3ccccc3)nc(SCC(=O)NCC3CCCO3)c2c1 (stereo not given)
  1.3, -0.34
> CCOC(=O)N1CCN(C(=O)CCN2C(=O)c3ccccc3S2(=O)=O)CC1
  0.11, -0.46
> COc1ccccc1Nc1ccc(Nc2ccccc2OC)nn1
  0.45, -0.67
> COCCn1c(SCC(=O)NNC(=O)Cc2ccccc2)nc2ccccc2c1=O
  2.5, -0.59

New compounds follow.
canonical_smiles,KCNQ2 pot,KCNQ2 pot baseline
CCC(=O)Nc1ccc2c(c1)nc(CCN1CCCCC1)n2C,0.43,-0.33
COc1ccc(Cl)c(OC)c1C(=O)NC(=O)Nc1nc(C)nc(C)n1,2,-1.4
Cc1ccc(OCC(=O)N/N=C/c2cccn2C)cc1C,0.07,0.03
CN1c2ccccc2C(=O)NC1c1ccc([N+](=O)[O-])s1 (stereo not given),1.1,-0.67
O=[N+]([O-])c1c(Nc2ccccc2O)ccc2nonc12,1.3,-0.71
Cc1cc2cc3c(cc2nc1SCC(=O)Nc1ccccc1)CCC3,0.27,-1.1
O=C(C1CCCC1)N(c1ccccc1)C1C=CS(=O)(=O)C1 (stereo not given),1.3,0
Cc1ccc(OCCC(=O)OCC(=O)NC(=O)c2ccccc2)cc1,0.07,-0.26
COC(=O)c1ccccc1Oc1ccc(NC(=O)CCCl)cc1,0.06,0.65
O=C(O)c1ccc(C(=O)c2ccc3c(c2)C(=O)N(CC2CCCO2)C3=O)cc1 (stereo not given),0.08,1.7
Cc1ccc(C(=O)Nc2ccccc2Cl)cc1,0.08,-0.04
O=C(NC(=S)N1CCCCC1c1cccnc1)c1ccc(F)cc1 (stereo not given),1.2,-1.2
COc1ccccc1CNS(=O)(=O)c1ccc(-n2cnnn2)c(C)c1,1.8,0.24
O=C(CN1CCc2[nH]c3ccccc3c2C1)N1CCCCC1,0.11,0.65
O=C(Nc1ccccc1C(=O)N1CCOCC1)c1ccc(F)cc1,0.42,-0.87
O=C(NCC(=O)N(c1ccc(F)cc1)C(C(=O)NC1CCCCC1)c1cccnc1)c1ccco1 (stereo not given),0.01,0.08
O=c1c2ccccc2nc(/C=C/c2cccc(Br)c2)n1CCCO,0.26,2
Cc1ccc(N(C)C2=NC(=O)CS2)cc1Cl,0.45,2.1
O=C(c1ccc2c(c1)OCO2)N1CCN(c2ccc(C(F)(F)F)cn2)CC1,0.3,-0.1
COC(=O)c1c(N2C(=O)CC(Sc3ccccc3C(=O)O)C2=O)sc2c1CCCC2 (stereo not given),3.2,-0.68
COc1ccc(-c2cc3nnc(-c4ccccc4)nc3s2)cc1,0.48,0.18
O=C1Nc2ccc(Br)cc2C1(O)c1ccc(F)cc1 (stereo not given),0.87,0.67
Cc1cc(F)ccc1NCc1ccc([N+](=O)[O-])cc1,0.11,-1
Nn1c(CN2CCCCC2)nc2ccccc2c1=O,0.17,0.27
COc1ccccc1Nc1nc(N2CCOCC2)nc(N2CCOCC2)n1,1.3,·
Cc1cnn(-c2nc(-c3ccccc3)cc(-c3ccccc3)n2)c1,0.23,-0.59
O=C(CS(=O)(=O)Cc1ccccc1)NCCc1ccc(F)cc1,0.84,0.66
COC(=O)C1=C(C(=O)OC)[C@@H]2N(Cc3ccccc3)c3ccccc3[C@@]23C[C@@H](C(=O)OC)N(C(=O)NC(C)(C)C)C3=N1,0.1,0.65
Cc1csc2ncc(C(=O)Nc3ccon3)c(=O)n12,0.42,-0.47
COc1ccc(C(C(=O)NC2CCCC2)N(C(=O)c2ccco2)c2ccc3c(c2)OCO3)cc1OC (stereo not given),2.4,-1.5

Continuation.
canonical_smiles,KCNQ2 pot,KCNQ2 pot baseline
CN(Cc1ccccc1F)c1ccc(S(=O)(=O)N2CCCC2)cn1,0.75,0.2
O=C(/C=C/c1cc2c(cc1Br)OCO2)NCc1ccc(Cl)cc1,0.77,1.3
O=C(CSc1nnc(-c2ccco2)n1CC1CCCO1)c1ccc(F)cc1 (stereo not given),0.29,0.2
COC1=CC(=O)OC12CCCCC2,1.2,0.42
Cc1cc(C)c(NC(=O)NC(=O)c2cccc(F)c2)c(C)n1,0.66,0.73
CSCC[C@H](N)C(=O)N1CCC(C(=O)N[C@H](C)C(=O)NC(C)c2ccccc2)CC1 (stereo not given in full),0.98,0.76
CCn1c(SCC(=O)Nc2nc(C)c(C)s2)nnc1-c1cccs1,1.7,-1.4
Cc1ccc(Cl)cc1NC(=O)COC(=O)C1CCCC1,0.14,0.55
O=C(Cn1cccc1C(=O)c1ccccc1)NCCCN1CCOCC1,0.05,0.05
COc1ccc(C(=O)NCc2nnc(SCC(=O)c3ccc(F)cc3)n2C)cc1OC,0.52,2.9
CN(CC(=O)Nn1cnnc1)S(=O)(=O)c1ccccc1,1.1,-0.47
Cc1cccc(NC(=O)Cc2noc3ccccc23)c1C,0.22,2
Cc1ccccc1C(=O)c1cccn1CC(=O)N1CCCCCC1,2.2,0.62
Cc1cc(NS(=O)(=O)c2ccc(NC(=O)/C=C/c3ccc(C)o3)cc2)nc(C)n1,0.03,0.25
COc1ccc(OC)c(CNC(=O)Cc2c(C(=O)O)[nH]c3ccc(Cl)cc23)c1,0.65,-0.41
Cc1cccc(CN2CCc3c([nH]c4ccccc34)C2CC(C)C)n1 (stereo not given),0.03,-0.41
O=C(O)COc1ccccc1/C=N/NC(=O)c1cc(-c2ccc(F)cc2)nc2ccccc12,0.21,1.5
COCCCNC(=S)N1CCN(C(=O)C(=O)Nc2ccc(C(=O)OC)cc2)CC1,0.09,0.01
CN1CCN(c2c(/C=N/O)c3ccccc3n2C)CC1,1.7,-0.83
COC(=O)NNC(=S)Nc1cc(OC)ccc1OC,0.91,0.26
Cc1cc(C(=O)N2CCC(C(=O)O)CC2)c(C)o1,0.02,0.71
C=CCCCCCCCCC(=O)Nc1c[nH]c(=O)[nH]c1=O,0.21,-0.72
CC(=O)Nc1ccc(NC(=O)CSc2nnnn2-c2ccc(F)cc2)cc1,0.02,-0.38
CCCC(C)c1nc(C(N)=O)c2[nH]c(=O)n(-c3ccc(OC)c(OC)c3)c2n1 (stereo not given),0.79,-0.32

Record cards, from the list above.
`COC1=CC(=O)OC12CCCCC2` reads KCNQ2 pot = 1.2; KCNQ2 pot baseline = 0.42
`O=C(/C=C/c1cc2c(cc1Br)OCO2)NCc1ccc(Cl)cc1` reads KCNQ2 pot = 0.77; KCNQ2 pot baseline = 1.3

Only part of the results is shown. The share of hits here may be higher or lower than overall.
